# 2A firefly = lowers the firefly signal of an FMDV 2A StopGo reporter; HEK cells with a luciferase reporter of 2A StopGo recoding; Potency, µM (doses to about 57.5 µM), for inactives: at the top dose signal change, negative = less light; actives 0.23% (n = 120,000); active = well fitted falling curve with a large enough effect; inconclusive = small, poorly fitted or top-dose-only effect; inactive = no such curve, though single readings can be large or run the other way; also: nearly all actives have a fitted effect of over 60% in size; overnight with compound
# 2A Renilla = FMDV 2A StopGo reporter, Renilla signal. HEK cells with a luciferase reporter of 2A StopGo recoding. Potency, µM (doses to about 57.5 µM), for the others: top-dose signal change, negative = less light. actives 0.32% (n = 120,000). AID 1745857; active means well fitted falling curve with a large enough effect; inconclusive means small, poorly fitted or top-dose-only effect; inactive means no such curve, though single readings can be large or run the other way; also: nearly all actives have a fitted effect of over 55% in size; overnight with compound
# * = called active by the depositor; ? = inconclusive; [ ] = dose if it differs, or a comment. % is scaled to controls: 0 for no effect and ±100 for the full control effect; potency is read from the fitted curve at half-maximal effect. Some of the compounds tested; the hit share may differ from the screen's.
[1] CCCCC(=O)Nc1ccc(O)c(-c2nc3cc(C)cc(C)c3o2)c1
[2] CC1=Nc2cc(C(=O)NC3CCC(C)CC3)ccc2Sc2c(C)ccc(C)c21 (stereo not given)
[3] CS(=O)(=O)c1ccc(OCCOc2cccc(F)c2)cc1
[4] Cc1cc(=O)n(Cc2cccc(F)c2)c2c1c(C)nn2-c1cccc(F)c1
[5] Cc1ccc(OCCC(=O)N2CCN(S(=O)(=O)c3ccc(C)s3)CC2)cc1
[6] Cc1nc(CNC(=O)NCC(C)N2CCCCC2C)cs1 (stereo not given)
[7] Cc1ccc(S(=O)(=O)N2CCC(C(=O)NCc3csc(-c4ccccc4)n3)CC2)cc1
[8] CCn1cc(/C=C(\NC(=O)c2cc(OC)c(OC)c(OC)c2)C(=O)NCCO)c2ccccc21
[9] CCc1noc(C)c1C(=O)Nc1sc(C)cc1C(=O)OC
[10] COc1ccc(-c2ccc(=O)n(CCNC(=O)Cc3ccc(Br)cc3)n2)cc1
assay / entry	1	2	3	4	5	6	7	8	9	10
2A firefly	10%	199%[activator]	41%[activator]	0%	-1%	-4%	-21%	0%	1%	2%
2A Renilla	-1%	58%[activator]	4%	8%	2%	7%	60%[activator]	-3%	-12%	10%

[11] COc1cccc2cc(-c3nnc(SCC(=O)Nc4ccccc4C(C)C)n3N)oc12
[12] Cc1ccc(C)c(OCC(O)Cn2nc(C)c3ccccc3c2=O)c1C (stereo not given)
[13] COc1ccccc1C(C)N(C)C(=O)Cc1c(C)nc2ccccc2c1C (stereo not given)
[14] Cc1[nH]c2ccc(C#N)cc2c1CCN
[15] CC(C)(C)C1CCC(C(=O)Nc2ccc(F)cc2)CC1 (stereo not given)
[16] Cc1ccc(-n2c(=O)c3c4c(sc3n(Cc3cc(=O)n5ccccc5n3)c2=O)CCC4)cc1C
[17] CSc1cccc(Nc2nc(SC)nc(-c3ccccc3)c2C#N)c1
[18] COc1ccc(-c2noc(-c3cccc(OC)c3OC)n2)cc1
[19] COC(=O)NC(NC(=O)OC)C(Cl)(Cl)Cl
[20] Cc1ccc(C(=O)c2cc(O)c(O)c([N+](=O)[O-])c2)cc1
assay / entry	11	12	13	14	15	16	17	18	19	20
2A firefly	-1%	5%	?	22%	?	-11%	6%	107%[activator]	9%	-1%
2A Renilla	-3%	26%	?	11%	-8%[1.06 µM]	-12%	-5%	9%	12%	-1%

[21] COc1ccc(Nc2nc(Nc3ccc(F)cc3)nc3nccnc23)cc1
[22] Cn1c(SCC(=O)Nc2ccc(Br)cn2)nnc1-c1cccs1
[23] CN(CC(=O)NC1CC1)c1nc(-c2ccsc2)nc2ccccc12
[24] COC(=O)c1ccc(C2CC(=O)Nc3c2cc(Br)c2ccccc32)cc1 (stereo not given)
[25] CCc1nnc(SCC(=O)Nc2cc(Cl)c(OC)cc2OC)c2cc3oc(C)cc3n12
[26] Cc1ccc(O)c(C(=O)OCC(=O)Nc2ccccc2N2CCCC2=O)c1
[27] COc1ccc(-c2cc(C)no2)cc1S(=O)(=O)N1CCCC(C)C1 (stereo not given)
[28] CC1=C(C(=O)OCc2ccccc2)C2(C(=O)Nc3ccc(Br)cc32)C(C(=O)OCc2ccccc2)=C(N)O1 (stereo not given)
[29] Fc1ccc(NCc2ccccc2-c2nnc(-c3ccccc3Cl)o2)cc1Cl
[30] CCN(CC)C(CNC(=O)C1CC2CCC1C2)c1ccsc1 (stereo not given)
assay / entry	21	22	23	24	25	26	27	28	29	30
2A firefly	152%[activator]	0%	3%	-6%	52%[activator]	-4%	7%	-1%	48%[activator]	0%
2A Renilla	16%	33%[activator]	-5%	-10%	0%	-2%	263%[activator]	6%[1.06 µM]	137%[activator]	7%

# No new results follow: an excerpt of the list.
[13] COc1ccccc1C(C)N(C)C(=O)Cc1c(C)nc2ccccc2c1C (stereo not given)
[14] Cc1[nH]c2ccc(C#N)cc2c1CCN
[15] CC(C)(C)C1CCC(C(=O)Nc2ccc(F)cc2)CC1 (stereo not given)
[16] Cc1ccc(-n2c(=O)c3c4c(sc3n(Cc3cc(=O)n5ccccc5n3)c2=O)CCC4)cc1C
[17] CSc1cccc(Nc2nc(SC)nc(-c3ccccc3)c2C#N)c1
[18] COc1ccc(-c2noc(-c3cccc(OC)c3OC)n2)cc1
[19] COC(=O)NC(NC(=O)OC)C(Cl)(Cl)Cl
[20] Cc1ccc(C(=O)c2cc(O)c(O)c([N+](=O)[O-])c2)cc1
[21] COc1ccc(Nc2nc(Nc3ccc(F)cc3)nc3nccnc23)cc1
[22] Cn1c(SCC(=O)Nc2ccc(Br)cn2)nnc1-c1cccs1
[23] CN(CC(=O)NC1CC1)c1nc(-c2ccsc2)nc2ccccc12
[24] COC(=O)c1ccc(C2CC(=O)Nc3c2cc(Br)c2ccccc32)cc1 (stereo not given)
assay / entry	13	14	15	16	17	18	19	20	21	22	23	24
2A firefly	?	22%	?	-11%	6%	107%[activator]	9%	-1%	152%[activator]	0%	3%	-6%
2A Renilla	?	11%	-8%[1.06 µM]	-12%	-5%	9%	12%	-1%	16%	33%[activator]	-5%	-10%

[25] CCc1nnc(SCC(=O)Nc2cc(Cl)c(OC)cc2OC)c2cc3oc(C)cc3n12
[26] Cc1ccc(O)c(C(=O)OCC(=O)Nc2ccccc2N2CCCC2=O)c1
[27] COc1ccc(-c2cc(C)no2)cc1S(=O)(=O)N1CCCC(C)C1 (stereo not given)
[28] CC1=C(C(=O)OCc2ccccc2)C2(C(=O)Nc3ccc(Br)cc32)C(C(=O)OCc2ccccc2)=C(N)O1 (stereo not given)
assay / entry	25	26	27	28
2A firefly	52%[activator]	-4%	7%	-1%
2A Renilla	0%	-2%	263%[activator]	6%[1.06 µM]

# The list goes on.
[31] O=S(=O)(Nc1nc2ccccc2nc1NC1CCCCC1)c1ccc(F)cc1
[32] Cc1ccccc1C(=O)OCc1cc(=O)n2c(C)csc2n1
[33] CCOc1ccc(NC(=O)CSc2nnc(-c3ccncc3)n2-c2ccccc2)cc1
[34] CCCc1nnc(NC(=O)Cc2coc3cc(C)cc(C)c23)s1
[35] CCOC(=O)c1cnc(SCc2nc(-c3ccc(OC)cc3)oc2C)nc1N
[36] CCOC(=O)CC(NC(=O)c1cc2c(=O)n3cccc(C)c3nc2s1)c1ccc(OCC(C)C)c(OC)c1 (stereo not given)
[37] CCN(CC(=O)NC(C)(C)C)C(=O)c1ccc(C#N)cc1
[38] Fc1ccc(-c2csc(=S)[nH]2)cc1
[39] CCCCNC(=O)c1ccccc1N
[40] CCCCOC(=O)c1ccc(NC(=O)CC2NCCNC2=O)cc1 (stereo not given)
assay / entry	31	32	33	34	35	36	37	38	39	40
2A firefly	7%	132%[activator]	-7%	-11%	-3%	-12%	-7%	33%[activator]	0%	16%
2A Renilla	3%	20%	-19%	-16%	-15%	-17%	4%	20%	-6%	-5%

# Full records, quoted from the list. Screens in order: 2A firefly, 2A Renilla
# O=S(=O)(Nc1nc2ccccc2nc1NC1CCCCC1)c1ccc(F)cc1 as listed: 7%, 3%
# Cc1ccccc1C(=O)OCc1cc(=O)n2c(C)csc2n1 as listed: 132%[activator], 20%

# (cont.)
[41] Cc1cc(-c2nc3ccccc3s2)ccc1NC(=O)c1cc(Cl)ccc1Cl
[42] CC(C)n1nc(C(=O)Nc2ccccc2)c2ccccc2c1=O
[43] CC1=C(C(=O)OC(C)C)C(c2ccccc2C(F)(F)F)CC(=O)N1 (stereo not given)
[44] CC1=NN(c2nc(C)cc(C)n2)C(=O)C1Cc1ccc(C)cc1 (stereo not given)
[45] O=C(O)C(c1c[nH]c2cccc(Cl)c12)N1CCN(Cc2cccc(Cl)c2)CC1 (stereo not given)
[46] CCOC(=O)/C(C#N)=C/c1cc(Br)ccc1OCc1ccccc1Cl
[47] CCCn1nc(C(=O)Nc2nc(-c3cc(OC)ccc3OC)cs2)c2ccccc2c1=O
[48] COc1cccc(CNC(=O)c2ccc3c(c2)NC(=O)CS3)c1
[49] Nc1ccc(-c2ccn[nH]2)cc1
[50] CCOc1ccc(CNS(=O)(=O)c2cc3c(cc2C)NC(=O)CO3)cc1OC
assay / entry	41	42	43	44	45	46	47	48	49	50
2A firefly	6%	9%	26%	209%[activator]	-10%	27%	-4%	0%	0%	17%
2A Renilla	-1%	-6%	0%	0%	-14%	3%	-7%	60%[activator]	3%	17%

[51] Clc1ccc(N/N=C/c2ccccc2)cc1Cl
[52] COc1ccc(C2c3c(n(C)c4ccccc34)C(=O)N2CC(=O)Nc2cc(Cl)ccc2C)cc1 (stereo not given)
[53] COc1ccc(S(=O)(=O)N2Cc3ccccc3CC2C(=O)Nc2ccc(C)cc2)cc1OC (stereo not given)
[54] CCCC(=O)Nc1nc2cc(NS(=O)(=O)c3cc(F)ccc3F)ccc2s1
[55] Cc1ccc(-c2cnc(CCC(=O)Nc3ccc(F)c(F)c3)o2)cc1C
[56] CSc1ccc(/C=N/Nc2ccc(S(N)(=O)=O)cc2[N+](=O)[O-])cc1
[57] COc1cc(C(=O)NNC(=O)CCNC(=O)c2ccc3ccccc3c2)cc(OC)c1OC
[58] COc1cc(OC)cc(C(=O)Nc2ccc(S(=O)(=O)Nc3ncccn3)cc2)c1
[59] CCOc1ccccc1NC(=O)CN1C(=O)COc2ccc(S(=O)(=O)N3CCCCCC3)cc21
[60] O=C(NCc1ccccn1)C1CCN(S(=O)(=O)c2cccc(OC(F)(F)F)c2)CC1
assay / entry	51	52	53	54	55	56	57	58	59	60
2A firefly	90%[activator]	0%	-2%	-11%	11%	0%	7%	3%	-8%	6%
2A Renilla	31%	-9%	80%[activator]	5%	13%	8%	3%	5%	-2%	15%

[61] CC(C)c1ccc(S(=O)(=O)N(Cc2ccc(C(=O)NC3CC3)cc2)C2CC2)cc1
[62] O=C(Nc1cccc(Cl)c1)Nc1c(N2CCCC2)c2ccccc2oc1=O
[63] Cc1sc(NC(=O)c2ccccc2)c(C(c2ccccn2)N2CCCCC2)c1C (stereo not given)
[64] CCN(C(=O)CSc1nc(-c2ccccc2)no1)c1ccccc1
[65] CCCn1c(NC(=O)COc2ccc(C)cc2)nc2ccccc21
[66] COc1cc(CNC(=O)c2cc3n(n2)CCCN(Cc2ccc(C)cc2)C3=O)cc(OC)c1OC
[67] C#CCNC(=O)CCSCc1csc(C)n1
[68] O=C(COC(=O)c1sc2ccccc2c1Cl)NCC1CCCO1 (stereo not given)
[69] CCc1ccc(NS(=O)(=O)c2ccc3[nH]cc(C(=O)NCCc4ccccc4)c(=O)c3c2)cc1
[70] C=C(C)Cn1c(SCC(=O)O)nc2c1c(=O)n(C)c(=O)n2C
assay / entry	61	62	63	64	65	66	67	68	69	70
2A firefly	?	-12%	?	4%	-23%	-17%	2%	1%	112%[activator]	0%
2A Renilla	?	58%[activator]	?	29%	0%	9%	3%	-3%	10%	0%

[71] CCCNc1nc(-c2cc(C)n(-c3cc(C)on3)c2C)cs1
[72] Fc1cc(CSc2nccc(C(F)(F)F)n2)c2ncccc2c1
[73] Cc1nnc(SCc2cc(=O)n3cccc(C)c3n2)s1
[74] Cc1ccc(NC(=O)c2sccc2C)cc1I
[75] O=C1CN(C(=O)COc2ccc(Cl)cc2)C(c2ccc(F)cc2)c2cc(Br)ccc2N1 (stereo not given)
[76] CC(C)n1nc(C(=O)Nc2cccc(S(=O)(=O)NC3=NCCC3)c2)c2ccccc2c1=O
[77] CCn1cc2nc(SCC(=O)Nc3cc(OC)ccc3OC)n(Cc3ccc(Cl)cc3)c(=O)c2n1
[78] CC(=O)c1cccc(NC(=O)C(C)n2c(=O)cc(-c3ccccc3)c3c(C)nn(C)c32)c1 (stereo not given)
[79] O=C(NCc1ccccc1)c1cc2cc(Br)ccc2[nH]1
[80] COc1ccc(OC)c(CN2CCC(C)CC2)c1
assay / entry	71	72	73	74	75	76	77	78	79	80
2A firefly	20%	21%	19%	133%[activator]	-31%	64%[activator]	-9%	4%	6%	1%
2A Renilla	7%	26%	5%	4%	-3%	210%[activator]	49%[activator]	-11%	0%	5%

[81] Cc1cc(C)c(CO)c(C)c1C=O
[82] CC(Sc1ncccc1Cl)C(=O)NC(C)(C)C (stereo not given)
[83] O/N=C/c1cccc(OCc2ccccc2)c1
[84] Cc1cccc(Cn2c(CN3CCCC(C)C3)nc3c2c(=O)n(C)c(=O)n3C)c1 (stereo not given)
[85] CCCn1nc(C(=O)N2CCN(CC(=O)N3CCCCC3)CC2)c2ccccc2c1=O
[86] CCCCNS(=O)(=O)c1ccc2nc(-c3cccnc3)cc(C(=O)NCCOC)c2c1
[87] CCOC(=O)Cn1c(=O)n(CC2CCCO2)c2nc(-c3ccc(C)cc3)nc(C(N)=O)c21 (stereo not given)
[88] COc1ccc(S(=O)(=O)NCCCO)cc1-c1nnc2c3ccccc3c(C)nn12
[89] COC(=O)c1ccc(C2/C(=C(\O)c3cccc(OC)c3)C(=O)C(=O)N2CCCn2ccnc2)cc1 (stereo not given)
[90] Cc1ccc(CN2CCC(CNC(=O)Nc3cccc(C(F)(F)F)c3)CC2)cc1
assay / entry	81	82	83	84	85	86	87	88	89	90
2A firefly	6%	3%	213%[activator]	-9%	3%	-1%	-2%	-20%	37%[activator]	-9%
2A Renilla	-7%	9%[1.06 µM]	10%	-7%	8%	71%[activator]	8%	39%[activator]	27%	-2%
